Source: PubChem BioAssay (National Center for Advancing Translational Sciences (NCATS))
Rango dissoc inh – inhibition of RanGTP-driven Rango-importin beta dissociation | 340,000 tested, 0.071% active | AID 540253 | O95149+P62826 | Biochemical FRET Rango-importin beta, RanGTP-induced dissociation | Potency, µM (top dose mostly 46.1 µM), for inactives: at the top dose activity change, negative = inhibition; active means falling FRET ratio curve, often poorly fitted, with flat reads before Ran was added; inconclusive means other falling curves, or compound fluorescence or quenching; inactive means flat or rising ratio curve;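 further: potency means the concentration at half of the fitted maximal effect; % of control where 0% means no effect; nearly all actives have a fitted effect of over 45% in size; -100% = wells without RanGTP and RCC1; the record marks most hits as doubtful in a second field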
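Recombinant Rango FRET biosensor (EYFP–snurportin 1 IBB–cerulean CFP10) at 0.1 uM premixed with 0.25 uM importin beta in PBS, 1 mM DTT, 0.02% Tween-20, 0.1% BSA. Compound added 5 min; RanGTP-RCC1 (0.6 uM Ran, 2 mM GTP, 0.2 uM RCC1) then triggers release, read at 45 min.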
Rango-impB inh – Rango-importin beta binding inhibition; Q14974; Rango CFP/YFP FRET sensor + importin beta, 45 min; Potency, µM (top dose mostly 92.2 µM), for the others: at the highest dose inhibition of complex formation; 340,000 tested, 0.031% active; active = rising FRET ratio curve, often small or poorly fitted; inconclusive = mostly compound fluorescence or quenching in the first reads; inactive = flat curves in all reads;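 further: potency means the concentration at half of the fitted maximal effect; 0% = DMSO wells and 100% = buffer wells lacking importin beta; nearly all actives have a fitted effect of over 15% in size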
Target sequence (Q14974 whole entry, looked up): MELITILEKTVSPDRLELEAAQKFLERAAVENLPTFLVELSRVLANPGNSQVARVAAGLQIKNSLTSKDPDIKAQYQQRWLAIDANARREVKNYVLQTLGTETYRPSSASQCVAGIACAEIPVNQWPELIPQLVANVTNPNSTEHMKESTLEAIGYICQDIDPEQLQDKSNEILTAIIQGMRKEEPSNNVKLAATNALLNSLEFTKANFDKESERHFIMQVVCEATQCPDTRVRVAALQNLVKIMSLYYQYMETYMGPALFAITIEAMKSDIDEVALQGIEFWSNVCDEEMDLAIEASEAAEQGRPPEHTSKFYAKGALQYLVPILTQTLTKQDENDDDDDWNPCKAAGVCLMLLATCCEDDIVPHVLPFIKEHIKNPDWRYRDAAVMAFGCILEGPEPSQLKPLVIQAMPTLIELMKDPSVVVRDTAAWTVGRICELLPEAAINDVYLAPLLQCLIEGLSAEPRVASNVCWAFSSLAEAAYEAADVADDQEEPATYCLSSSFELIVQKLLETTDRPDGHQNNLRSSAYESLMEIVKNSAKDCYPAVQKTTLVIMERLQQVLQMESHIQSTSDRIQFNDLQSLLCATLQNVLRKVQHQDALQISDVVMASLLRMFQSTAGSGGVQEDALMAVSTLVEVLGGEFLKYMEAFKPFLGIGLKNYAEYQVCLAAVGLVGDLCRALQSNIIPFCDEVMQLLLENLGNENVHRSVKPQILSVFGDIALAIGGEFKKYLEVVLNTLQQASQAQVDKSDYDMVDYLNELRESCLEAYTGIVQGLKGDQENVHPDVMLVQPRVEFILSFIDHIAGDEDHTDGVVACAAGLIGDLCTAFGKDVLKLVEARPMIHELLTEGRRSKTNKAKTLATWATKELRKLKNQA
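FRET biosensor Rango (snurportin 1 IBB between N-terminal EYFP and C-terminal Cerulean), 50 nM in PBS/1 mM DTT/0.02% Tween-20/0.1% BSA, preincubated 5 min RT with compound; 0.125 microM importin beta added, 45 min RT, CFP/YFP FRET ratio read.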
miR-21 reporter – raises the signal of a miR-21 reporter. HeLa miR-21 FLuc reporter, luciferase, 48 h. Potency, µM (top dose mostly 38.3 µM), for inactives: top-dose reporter change, positive = more light. 340,000 tested, under 10 active. AID 2288; active = well fitted rising curve with a large enough effect; inconclusive = small, poorly fitted or top-dose-only effect; inactive = no such curve, though single readings can be large or run the other way;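 further: % of control where 0% means no effect; miR-21 action dims this reporter so a rising signal means less miR-21 action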
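HeLa cells endogenously expressing miR-21, stably carrying CMV-driven firefly luciferase with a downstream miR-21 binding site, 2000 cells/well. Titrations up to approximately 40 uM, 48 hours; luciferase luminescence read.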
GLA inh pH 4.5 – alpha-galactosidase A (human) inhibition, pH 4.5; activity change, negative = inhibition, % at 105 µM; AID 1467; 230,000 tested, under 10 active; P06280; purified enzyme, 4-MU-alpha-Gal fluorescence, pH 4.5; inconclusive = small, poorly fitted or top-dose-only inhibition, or a rising curve; inactive = flat fitted curve, though single readings scatter; no compound was filed as active;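 further: 0% = full activity with enzyme and -100% = basal without enzyme; dose as in the result columns while the protocol names 77 µM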
* hit, by the source's call; ? = inconclusive; . = not tested or not shown; & = joins results of further samples.

SMILES	Rango dissoc inh	Rango-impB inh	miR-21 reporter	GLA inh pH 4.5
CN(C[C@H](Cc1ccccc1)N(C[C@H](CC1CCCCC1)N(CCc1ccccc1)N=O)N=O)N=O	0%	-2.1%	-1%	7
CSCCC(NC(=O)c1ccccc1C)C(=O)O (stereo unspecified)	0%	-2.6%	-2%	2
COc1ccccc1/C=C1\SC(=O)N(CCC(=O)NNC(=O)c2ccccc2Cl)C1=O	9%	0.7%	-10%	1
Cc1cc(=O)oc2cc(OCC(=O)OCC(=O)N3CCC(C)CC3)ccc12	20%	0.2%	0%	7
CN(Cc1ccccc1)C(=O)COC(=O)c1ccccc1NS(=O)(=O)c1cccc(N)c1	?	-0.8%	1%	-4
CC1=Nc2cc(Cl)ccc2Oc2ccccc21	24%	1.2%	0%	-10
Cc1cc(C(=O)OCC(=O)Nc2ccc(F)cc2[N+](=O)[O-])c2ccccc2n1	-12%	-0.3%	2%	1
Cc1ccc(NCCCn2cnc(C(=O)Nc3ccc(C)c(C)c3)n2)cc1C	-5%	-2.9%	.	.
C=C(C(=O)c1ccccc1)C(c1ccccc1)C(C)C(=O)c1ccccc1 (stereo unspecified)	0%	-0.1%	?	4
CCCCC1(c2ccc(F)cc2)NC(=O)N(CC(=O)Nc2ccc(N3CCOCC3)cc2)C1=O (stereo unspecified)	-6%	-2.0%	.	.

Some values from the list.
GLA inh pH 4.5 with C=C(C(=O)c1ccccc1)C(c1ccccc1)C(C)C(=O)c1ccccc1 (stereo unspecified) is entered as 4
Rango dissoc inh with Cc1cc(=O)oc2cc(OCC(=O)OCC(=O)N3CCC(C)CC3)ccc12 is entered as 20%
miR-21 reporter with CN(C[C@H](Cc1ccccc1)N(C[C@H](CC1CCCCC1)N(CCc1ccccc1)N=O)N=O)N=O is entered as -1%
miR-21 reporter with CC1=Nc2cc(Cl)ccc2Oc2ccccc21 is entered as 0%

(more compounds)
SMILES	Rango dissoc inh	Rango-impB inh	miR-21 reporter	GLA inh pH 4.5
CN(Cc1ccccc1)C(=O)COC(=O)c1ccc(S(=O)(=O)N(C)C)cc1	19%	1.0%	0%	-2
O=C(c1ccc2nc3ccccc3c(=O)n2c1)N1CCN(Cc2ccc3c(c2)OCO3)CC1	?	?	-20%	10
COc1cc(/C=N/O)cc(Br)c1OCC(=O)NCc1ccccc1	?	0.5%	-15%	5
COc1cccc(CNc2ncc(Br)cc2Br)c1O	10%	4.6%	-44%	-8
Cc1ccc(C(=O)N2CCN(Cc3ccc4c(c3)OCO4)CC2)cc1S(=O)(=O)N1CCOCC1	2%	5.9%	3%	-3
COc1ccc(C(=O)Nc2ncc(C)s2)cc1S(=O)(=O)N1CCOCC1	1%	3.5%	.	.
COc1ccc2c3c([nH]c2c1)C1(NCC3)C(=O)Nc2ccccc21 (stereo unspecified)	18%	-0.2%	8%	3
COc1ccc(S(=O)(=O)N2CCCOC2CNC(=O)C(=O)NCCc2ccco2)cc1OC (stereo unspecified)	17%	-0.4%	-3%	.
COc1ccc(C2C(C#N)=C(C)NC(C)=C2C(=O)OC(C)C)c(OC)c1 (stereo unspecified)	-5%	-1.5%	1%	4
CCn1ncc(C(=O)Nc2ccccc2C)c1C	3%	-1.4%	-21%	-4
C/C(=N\O)C(C)(C)Nc1ccc(F)cc1	-3%	5.4%	-1%	-3
CC(=O)c1ccc(C#CC(C)(C)O)s1	0%	-0.1%	-10%	-8
CN(C)/C(Cn1cncn1)=C1/N=C(c2ccccc2)OC1=O	-10%	-3.5%	-2%	-3
COc1ccc2cc(C(c3nnnn3C(C)(C)C)N3CCSCC3)c(=O)[nH]c2c1 (stereo unspecified)	16%	-3.9%	-8%	5
CC1CCCN(Cc2csc(N)n2)C1 (stereo unspecified)	4%	2.1%	-1%	-1
CCCNC(=O)C(Cc1ccccc1)NC(=O)Cc1ccccc1 (stereo unspecified)	-7%	6.2%	.	.
Fc1ccccc1OCCCCSc1ncccn1	-9%	1.1%	-34%	-2
O=C(NC(Cc1c[nH]c2ccccc12)C(=O)O)/C(=C/c1ccc2c(c1)OCO2)NC(=O)c1ccccc1 (stereo unspecified)	2%	-1.2%	1%	-19
CCOC(=O)COc1c(Cl)cc(C2NC(=S)NC(c3ccccc3)=C2C(C)=O)cc1OC (stereo unspecified)	-5%	-2.0%	-13%	-8
O=C(CCc1ccccc1)NCCc1cccs1	-1%	4.0%	-35%	10
Cc1ccc(-c2cc(C(=O)NCc3ccc4c(c3)OCO4)no2)cc1	0%	-2.8%	-20%	1
Cc1ccc(NC(=O)CCN2CCOCC2)cc1C	-5%	-4.7%	0%	.
CCOP(=O)(OCC)C(Nc1ccc(C(=O)O)cc1)c1ccccc1 (stereo unspecified)	-7%	5.5%	-9%	-4
O=C(COc1ccc(Nc2ccccc2)cc1)OCC(=O)N1CCCCC1	11%	1.1%	0%	1
COCCN=C1Sc2nc3ccc(C)cc3cc2CN1Cc1cccs1	-5%	0.4%	-20%	-1
COc1ccc(S(=O)(=O)N(C)CC(=O)Nc2ccccc2SC)cc1Cl	3%	-0.7%	-11%	-17
O=C(NCCN1CCOCC1)c1ccc(Cl)c(S(=O)(=O)N2CCOCC2)c1	0%	-3.4%	1%	.
CCc1ccccc1NCC(=O)Nc1ccc(Cl)c(C(F)(F)F)c1	12%	-4.5%	9%	-4
CC(C)c1ccc(/C=C2\Oc3c(ccc(O)c3CN3CCN(C)CC3)C2=O)cc1	?	?	-14%	-2
O=C(NNC(=O)c1ccccc1-n1cccc1)c1ccc(Cl)cc1Cl	9%	-0.8%	0%	-4
CNC(=O)CN(c1ccc(OC)cc1)S(=O)(=O)c1ccc(F)cc1	-10%	-1.4%	-5%	3
COc1ccc(NC(=O)C2CCCN(CCCc3ccccc3)C2)cc1OCC(C)C (stereo unspecified)	-7%	6.4%	11%	.
C[C@@H]1[C@H](O)C[C@@]23COC(=O)C2=CCCC3[C@@]1(C)CCC1COC(=O)C1 (stereo partly specified)	4%	1.8%	.	.
C=CCn1c(C)cc(C(=O)CSc2nc3ccccc3o2)c1C	-14%	0.0%	-9%	1
C/C(=N/Nc1ccnc2cc(Cl)ccc12)c1ccc(O)cc1	-6%	?	.	.
CCOc1ccc2ccccc2c1CNc1nnnn1CC	-3%	-3.4%	0%	-1
C=CCOn1c(=O)c(-c2ccc(OC)c(OC)c2)[n+]([O-])c2ccccc21	-5%	?	-13%	0
CC(=O)CSc1ncnc2sc3c(c12)CCCC3	6%	-2.5%	-24%	1
Cc1cccc(NC(=O)C2CCN(S(=O)(=O)c3c(C)noc3/C=C/c3ccco3)CC2)n1	25%	1.0%	11%	-12
Nc1nc(SCC(=O)Nc2cc(-c3ccccc3)nn2-c2ccccc2)n[nH]1	15%	-1.5%	-11%	1
COc1ccc(OCC(=O)N(Cc2ccc(C)o2)C2CCS(=O)(=O)C2)cc1 (stereo unspecified)	26%	0.0%	-1%&1%	.
O=c1cc(N2CCOCC2)c2ccccc2o1	25%	3.1%	-9%	-4
CC1CCCCC1NC(=S)Nc1ccc(Cl)cc1Cl (stereo unspecified)	4%	0.6%	-7%	6
Cc1[nH]c2ccccc2c1C(c1ccncc1)N1CCC(C)CC1 (stereo unspecified)	11%	?	5%	-4
COC(=O)C1=NN(c2cccc3ccccc23)C2C(=O)N(c3ccccc3OC)C(=O)C12 (stereo unspecified)	12µM*	?	-5%	0
CC(=O)c1ccc(NC(=O)CC2Nc3cccc4cccc(c34)NC2=O)cc1 (stereo unspecified)	-11%	-3.4%	5%&5%	-3
Cc1ccc(C(=O)NC(=O)OCCn2c(C)cnc2[N+](=O)[O-])cc1	-6%	0.2%	-10%	3
CN1CCN(S(=O)(=O)c2cc(C(F)(F)F)ccc2Cl)CC1	6%	-3.6%	-5%	.
O=[N+]([O-])c1ccc(CNc2cccc(F)c2)s1	4%	1.6%	11%	.
Cc1ccc(NC(=O)Cn2c(=O)n(Cc3ccco3)c(=N)c3c4c(sc32)COC(C)(C)C4)cc1	-18%	1.4%	-2%	1
(further entries)
SMILES	Rango dissoc inh	Rango-impB inh	miR-21 reporter	GLA inh pH 4.5
COC(=O)[C@@]12CCCCN1[C@H](c1ccc(SC3CCCCC3)cc1)[C@H]1C(=O)N(C)C(=O)[C@H]12	10%	?	.	.
Cc1c(NC(=O)Nc2ccc([N+](=O)[O-])cc2)c(=O)n(-c2ccccc2)n1C	21%	2.8%	1%	.
O=C(CN1C(=O)S/C(=C/c2cccs2)C1=O)N1CCCC1	10%	-0.8%	.	.
O=C(NCc1ccco1)c1nc2nc(-c3cccs3)cc(C(F)(F)F)n2n1	?	?	-13%	?
Cc1ccc(S(=O)(=O)NC2CCCCC2)cc1	-16%	-0.1%	.	.
COc1ccc(Cn2c(=O)oc3ccc(C)cc32)cc1OC	-6%	-6.0%	4%	4
Cc1ccc(C)c(NC2=CC(=O)CC(C)(C)C2)c1C#N	-1%	-1.1%	2%	5
CCOC(=O)CN1C(=O)C(Sc2n[nH]c(-c3ccccc3)n2)CCc2ccccc21 (stereo unspecified)	-20%	-2.1%	21%	-12
O=C(Nc1cccc(Cl)c1)Nc1nc(-c2ccc(Cl)cc2)cs1	-6%	1.6%	26%	-3
COC(=O)Cn1c(=O)c2c(n(Cc3ccccc3)c1=O)N/C(=C/c1ccc(Br)cc1)C2=O	?	?	10%	-2

Next part (two carried over from the part before).
SMILES	Rango dissoc inh	Rango-impB inh	miR-21 reporter	GLA inh pH 4.5
O=C(Nc1cccc(Cl)c1)Nc1nc(-c2ccc(Cl)cc2)cs1	-6%	1.6%	26%	-3
COC(=O)Cn1c(=O)c2c(n(Cc3ccccc3)c1=O)N/C(=C/c1ccc(Br)cc1)C2=O	?	?	10%	-2
COc1cccc(Oc2nc(N)ncc2[N+](=O)[O-])c1	-6%	-0.4%	-1%	.
Cc1ccc(N=C2NC(=O)/C(=C/c3cccn3C)S2)cc1	-12%	?	-27%	-9
CCCN(CC(=O)Nc1ccc(OC)c(OC)c1)CC(=O)Nc1ccc(F)c(F)c1F	20%	0.2%	-5%	-8
Cc1ccc(C)c(S(=O)(=O)N2CCCC2CNC(=O)C(=O)NCc2ccccn2)c1 (stereo unspecified)	-10%	0.0%	.	.
Nc1c(Cl)cc(NC(=O)c2ccccc2C(=O)O)cc1Br	4%	7.3%	1%	-3
CN1C(=O)CC(N2CCN(c3ccc(Cl)c(Cl)c3)CC2)C1=O (stereo unspecified)	?	-4.0%	-6%	5
COc1ccc(NC(=O)Nc2ccc(Cc3ccncc3)cc2)cc1OC	0%	0.4%	11%	-6
CC(=O)Nc1ccc(NC(=O)COc2ncnc3ccccc23)cc1	-9%	-3.0%	-1%	-4
COc1ccc(/C=C(\NC(=O)c2ccccc2)C(=O)NNC(=O)CCN2CCOCC2)cc1	-1%	-0.1%	-1%	5
O=C(Nc1ccccc1)N(c1ccccc1)C1C=CS(=O)(=O)C1 (stereo unspecified)	28%	2.5%	-5%	-1
COC(=O)C1C(=O)C2=C(CC1C)NC(=O)CC2c1cccc(C)c1 (stereo unspecified)	17%	1.8%	-1%	-19
CSc1cccc(NC(=O)COC(=O)c2ccccn2)c1	17%	1.0%	.	.
CCc1ccc(-c2nnn(Cc3nc4ccccc4s3)n2)cc1	-2%	-3.3%	-23%	-1
Oc1ccc(N=Nc2n[nH]c(-c3ccccc3)n2)cc1	2%	-1.4%	-37%	-3
Cc1ccccc1Oc1ncnc2sccc12	8%	-1.5%	-4%	17
COc1cccc(-c2nc(CS(=O)CC(=O)NC3CCCC3)c(C)o2)c1 (stereo unspecified)	?	1.0%	-3%	-2
O=C(O)COc1ccc(/C=C/c2nc(-c3ccccc3O)n[nH]2)cc1	-8%	1.1%	0%	.
Cc1cccc(C)c1NC(=O)N1CCN(C2CCCCC2)CC1	21%	2.9%	-4%	-6
Cc1cc(C)cc(NC(=O)CCc2nc3sc4c(c3c(=O)[nH]2)CCCC4)c1	-3%	?	.	.
CCOC(=O)c1cc(NC(=O)CNCC(c2ccccc2)N(C)C)cc(C(=O)OCC)c1 (stereo unspecified)	2%	1.5%	1%	.
CCn1c(COc2ccccc2C)nnc1SCC(=O)N1CCC(C)CC1	0%	4.7%	-3%	2

An excerpt. The share of hits here may be higher or lower than overall.
